Screening results deposited in PubChem by several laboratories.
PABP polyA inh – PABP-poly(A) binding inhibition; hit rate 1% among 290,000; P11940; AID 2014; inhibition, % at 35 µM; PABP-poly(A) RNA binding, fluorescence polarization;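 active = 50% or more with normal probe brightness, or confirmed in later tests; inconclusive = above 50% with abnormal brightness, or retests that disagree; inactive = below 50% or failed in later tests; about a fifth of its hits are not listed in these tables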;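 also: calls also rest on retests at 20 µM and on dose response follow-up; controls were probe without protein and protein plus probe with vehicle; some compounds called inactive have numbers as strong as hits; many hits fall short of the cut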
Rce1 inh – yeast Ras-converting enzyme inhibition | Q03530 | yeast membranes, quenched prenylated peptide cleavage fluorescence | calls only | hit rate 0.27% among 290,000;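 active = fall in fluorescence gain of 50% or more versus controls, with final raw signal at or below 3038400; inconclusive = same 50% fall but final raw signal above 3038400; inactive = fall in fluorescence gain under 50%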;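 also: plate controls were neutral control wells for no effect and wells lacking membranes for full effect; tested at 10 µM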
Target sequence (Q03530 whole entry, looked up): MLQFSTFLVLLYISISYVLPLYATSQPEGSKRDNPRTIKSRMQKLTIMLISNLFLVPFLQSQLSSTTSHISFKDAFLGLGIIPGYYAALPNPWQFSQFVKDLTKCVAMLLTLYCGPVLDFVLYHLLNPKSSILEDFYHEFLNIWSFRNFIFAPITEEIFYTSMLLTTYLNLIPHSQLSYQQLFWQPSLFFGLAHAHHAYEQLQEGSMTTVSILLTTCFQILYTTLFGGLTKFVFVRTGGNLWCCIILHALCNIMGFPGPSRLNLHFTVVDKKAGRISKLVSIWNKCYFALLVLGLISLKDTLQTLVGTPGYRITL
Env fusion inh – HIV envelope-mediated fusion inhibition. HeLa-JRFL Env/CEM21 cell fusion, luciferase. hit rate 1.1% among 360,000. inhibition, % at 12.3 µM;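 active = mean replicate inhibition score of at least 50 and every replicate individually at or above 50; inconclusive = only one of the two criteria met; inactive = mean below 50 and not all replicates reaching 50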;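 also: 0% = plate neutral controls and 100% = maraviroc near 300 nM; one replicate is shown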
eIF4H FP inh – inhibitors of RNA binding by human eIF4H. AID 2012. hit rate 0.94% among 290,000. eIF4H fluorescence polarization binding assay. Q15056. inhibition, % at 35 µM;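 active = 50% or more with normal probe brightness, or confirmed in later tests; inconclusive = above 50% with abnormal brightness, or retests that disagree; inactive = below 50% or failed in later tests; about a fifth of its hits are not listed in these tables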;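 also: calls also rest on retests at 20 µM and on dose response follow-up; 0% = protein and probe with vehicle and 100% = probe without protein; strong numbers were not always called active; many hits fall short of the cut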
CSC inhib – blocks cancer stem cells | cancer stem cell-like cells viability, luminescence | hit rate 1.1% among 300,000 | inhibition, % at 7.5 µM | AID 2717;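 active = mean at 75% or more and at least half the replicates too; inconclusive = mean and replicates disagree; tested in HMLE shEcad cells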;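 also: 0% = median of negative and 100% = median of positive control wells; the first replicate is given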
UUG fidelity – alters start codon recognition fidelity in yeast; AID 602363; hit rate 0.13% among 350,000; activity score, % at 18.7 µM; S. cerevisiae UUG-firefly luciferase reporter, luminescence/redox ratio;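 active = replicate mean at a twofold rise or more, about +100% in these data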;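 also: firefly luciferase made from a UUG start codon reports start codon fidelity; reporter light over untreated wells divided by growth signal over untreated wells; some hits fall short of that in this replicate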
MT1-MMP act inh – inhibitors of human MT1-MMP activation; HT1080 RFP-PRO-GFP cells, GFP/RFP ratio fluorescence, overnight; percent of plate control window, DMSO zero; GFP/RFP ratio change, % at 20 µM; hit rate 0.061% among 360,000; AID 651647;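 active = GFP/RFP ratio change of at least 30% with cell ATP level not reduced by more than half and red fluorescence within 50% of control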; also: strong numbers were not always called active
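Assay system – RFP-PRO-GFP reporter HT1080 cells · Compound dosing – single dose of 20 µM compound, 1% DMSO final · Incubation – overnight compound exposure at 37 °C · Measure – GFP/RFP fluorescence ratio · Benchmarks – DMSO wells and RFP-L50D-GFP cells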
eIF4H FP inh retest – second read-out of eIF4H FP inh, no call of its own (marks repeat the call); inhibition, %; compound at 20 µM; confirmation average;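 mean of two retest wells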
PABP polyA inh retest – second read-out of PABP polyA inh, no call of its own (marks repeat the call); inhibition, %; compound at 20 µM; confirmation repeats;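 mean of two retest wells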
MT1-MMP act inh RFP – further read-out of MT1-MMP act inh, marked with its call; RFP signal change, %; measured here: RFP expression control read;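 0 = vehicle wells; hits needed this value within 50% of zero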
* = called active by the depositor; i = inactive; u = inconclusive; x = not tested or not shown; & = joins results of further samples.

SMILES	PABP polyA inh	Rce1 inh	Env fusion inh	eIF4H FP inh	CSC inhib	UUG fidelity	MT1-MMP act inh	MT1-MMP act inh RFP	others
CC(=O)Nc1ccccc1NC(=O)CC(C)(C)C	-7	i	-2	-2	11	x	-2	1
CCC(CC)CN1CCC(CN2C(=S)NC[C@@H]2[C@@H](C)CC)CC1	x	x	-1	x	x	-10	6	6
CCOC(=O)c1ccc(Nc2nnc3nc(C)cc(C)n23)cc1	-6	i	x	1	x	-16	14	8
Cc1ccc(C)c(CS(=O)(=O)c2cn(CC(=O)N3CCC(C)CC3)c3ccccc23)c1	2	i	120*	-7	-3	2	0	-6
O=C(N/N=C/c1ccc(Br)o1)c1cc([N+](=O)[O-])cc([N+](=O)[O-])c1	32	x	5	-4	-1	x	3	4
Cc1ccccc1-c1ccc2c(c1)O[C@@H](CN(C)Cc1ccc(C(=O)O)cc1)[C@@H](C)CN([C@H](C)CO)S2(=O)=O	x	x	u	x	x	9&16	1	4
O=C(O)c1ccccc1-c1nc2ccccc2c(=O)n1O	-5	i	3	1	-5	x	-2	1
CCC(CC)C(=O)Nc1cccc(C(=O)Nc2ccc(S(=O)(=O)Nc3ccc(C)cc3)cc2)c1	-2	i	19	-2	47	6	-14	-17
CCCN1Cc2cccc(C(=O)NCc3ccc4c(c3)OCO4)c2C1=O	-13	i	x	-6	x	-16	-2	-4
CCCOc1ccc(N2C(=O)CC(SCC(N)C(=O)OCC)C2=O)cc1 (centres undefined)	3	i	18	-6	0	-4	3	4
Cc1nc(NCCO)c(C#N)c2c1COC(C)(C)C2	1	i	x	1	-7	-14	3	1
COc1ccc(CCC(=O)NNC(=O)c2cc(Cl)ccc2OC)cc1	-1	i	-6	-1	-2	-8	-1	1
O=C(O)c1ccc(NC(=S)Nc2ccccc2)cc1	11	i	-5	-4	27	-12	5	7
C=CCNC(=O)/C(C#N)=C/c1ccc(SC)cc1	3	i	7	-3	3	x	3	6
Cc1cccc(OCC(=O)Nc2ccc(C(=O)Nc3ccccc3C(=O)O)cc2)c1C	21	i	-18	-3	-2	-15	3	6
CC[N+]1(C)CC2CCC(C)(C1)C2(C)C (centres undefined)	13	i	13	5	x	1	-5	-1
CCCCN1CNC(=S)N(CCc2ccc(OCC)c(OCC)c2)C1	10	i	4	-4	6	-25	-2	0
CCC(C(=O)NCc1ccc(C)cc1)c1ccccc1 (centres undefined)	-4	i	10	-15	-1	8	-1	-2
COCCNC(=O)CN1CCOc2ccccc21	-7	i	-53	1	8	1	-1	2
CSc1ccccc1C(=O)C1CCCN(S(=O)(=O)N(C)C)C1 (centres undefined)	-4	i	4	1	8	x	-1	-1
COCCN(CCOC)C(=O)CN1C(=O)NC2(CCCc3sccc32)C1=O (centres undefined)	6	i	3	-2	-14	3	0	1
CCN(CC)C(=O)c1ccc(NS(=O)(=O)c2ccccc2)cc1	8	i	20	1	1	2	15	16
O=C(Nc1ccccc1)NC1CCN(CCCN2C(=O)c3ccccc3C2=O)CC1	4	i	x	-11	-14	-18	-1	1
O=C(CSc1ccccc1)NCC(c1ccco1)N1CCCCC1 (centres undefined)	x	x	-2	x	x	-25	2	-2
CCCCN(CCCC)CCCNC(=O)C1CC(c2ccc(C(F)(F)F)cc2)=NO1 (centres undefined)	8	i	6	-8	14	-7	-1	0
CC(C)C(NC(=O)c1ccc(S(=O)(=O)N2CCOCC2)cc1)c1nc2ccccc2[nH]1 (centres undefined)	-4	i	-61	-5	-6	-17	3	6
CCC(C)(C)NC(=O)C(OC(=O)c1ccco1)c1ccc(OC)cc1 (centres undefined)	3	i	6	4	-3	7	0	3
COc1ccc(C)cc1NC(=O)CSc1nnc(-c2cc(C)[nH]n2)n1N	4	i	18	-3	-8	-25	-2	1
O=P(Cc1ccccc1)(c1ccccc1)c1ccccc1	1	i	x	4	0	x	2	5
CC1(C)CC(=O)c2cc(N=C/C(C(=O)c3ccccc3)=C(\O)c3ccccc3)c(=O)oc2C1	-2	i	-26	6	-3	x	3	1
CCSc1ccccc1C(=O)Nc1nc2ccccc2c(=O)[nH]1	-7	i	7	2	-5	x	2	-6
CN(Cc1ccccc1)C(=O)CN1CCN(S(=O)(=O)c2ccc(Cl)c(Cl)c2)CC1	x	x	x	x	-8	-1	-2	-7
N#CC1=C(N)Oc2cc(N)ccc2C1c1ccc(F)cc1 (centres undefined)	10	i	-70	2	30	-13	-7	-4
O=[N+]([O-])c1ccc(/C=N/Nc2nc(N3CCCCC3)nc(N3CCCCC3)n2)cc1	6	i	19	-5	-3	x	3	-5
CCOc1ccc(N2C(=O)/C(=C/c3ccccn3)SC2=S)cc1	-10	i	x	-4	5	x	x	x
CCOc1cccc(/C=N/NC(=S)NCCN2CCOCC2)c1O	-7	i	0	16	-10	x	3	4
CC(=O)c1ccc2c(c1)C1C=CCC1C(C(=O)O)N2 (centres undefined)	89*	x	-2	101*	x	x	3	2
CCCNC(=O)c1ccccc1NC(=O)Cc1ccc(OC)c(S(=O)(=O)N2CCOCC2)c1	x	i	-7	x	-8	-2	0	4
CCOc1ccc(-n2nc(C(=O)NC3CCCCC3)c3ccccc3c2=O)cc1	1	i	4	5	5	-22	-7	0
N#Cc1ccc(S(=O)(=O)N2CCCCC2c2cc(C(=O)NCc3cccnc3)no2)cc1 (centres undefined)	x	x	2	x	x	5	4	-6

Four consecutive records already listed:
SMILES	PABP polyA inh	Rce1 inh	Env fusion inh	eIF4H FP inh	CSC inhib	UUG fidelity	MT1-MMP act inh	MT1-MMP act inh RFP	others
CCSc1ccccc1C(=O)Nc1nc2ccccc2c(=O)[nH]1	-7	i	7	2	-5	x	2	-6
CN(Cc1ccccc1)C(=O)CN1CCN(S(=O)(=O)c2ccc(Cl)c(Cl)c2)CC1	x	x	x	x	-8	-1	-2	-7
N#CC1=C(N)Oc2cc(N)ccc2C1c1ccc(F)cc1 (centres undefined)	10	i	-70	2	30	-13	-7	-4
O=[N+]([O-])c1ccc(/C=N/Nc2nc(N3CCCCC3)nc(N3CCCCC3)n2)cc1	6	i	19	-5	-3	x	3	-5

(cont.)
SMILES	PABP polyA inh	Rce1 inh	Env fusion inh	eIF4H FP inh	CSC inhib	UUG fidelity	MT1-MMP act inh	MT1-MMP act inh RFP	others
CC(=O)c1cccc(NC(=O)C2CCN(C(=O)c3cccs3)CC2)c1	-4	i	4	-6	-2	-3	0	-1
CCCCSC1(SCCCC)N=C(N)C2(C#N)C(c3ccccc3)NC(C)=CC12C#N (centres undefined)	5	i	x	0	-9	3	-2	7
O=C1CC(c2ccccc2)CC(O)=C1C=NCCN1CCNCC1 (centres undefined)	0	i	x	2	-18	-13	5	2
Cc1ccc(S(=O)(=O)OCCC2=CC(=O)CCN2Cc2ccccc2)cc1	x	x	-19	x	x	8	4	-4
COc1ccc(-c2ccc(SCC(=O)NCC3CCCO3)nn2)cc1OC (centres undefined)	-4	i	15	-2	-11	-15	-1	1
O=C(NCc1ccc(F)cc1)C1CCC(=O)N1C1CCCCC1 (centres undefined)	2	i	x	-3	-7	-20	2	0
CCC(C)C(NC(=O)c1ccc(Cl)cc1)C(=O)O (centres undefined)	2	i	x	-5	-8	-3	1	2
Cc1cc(C)n(-c2ccc(NC(=O)C3CCN(Cc4ccccn4)CC3)cc2)n1	8	i	-3	-2	-1	-3	x	x
COc1ccc(C)cc1S(=O)(=O)N1CCOCC1	0	i	-39	-3	5	x	0	0
CCn1cc(C(=O)OC(C)C(=O)Nc2c(C)n(C)n(-c3ccccc3)c2=O)c(=O)c2ccc(C)nc21 (centres undefined)	-13	x	x	-9	x	8	0	4
CC1(C)COC(c2coc3ccccc3c2=O)OC1	-6	i	-21	-7	-1	x	-4	0
COc1ccc(C2CC(c3ccc(OC)cc3)n3nc(N)nc3N2)cc1 (centres undefined)	-2	i	-6	-6	12	-19	-2	0
CNS(=O)(=O)c1ccc(NC(=O)C(CCSC)NC(N)=O)cc1 (centres undefined)	2	i	-12	0	-10	-7	12	2
Nc1c(C(=O)Nc2ccc(S(=O)(=O)N3CCCC3)cc2)sc2nc3cc4c(cc3cc12)CCC4	-12	i	-10	67	6	x	-66	-1	eIF4H FP inh retest=6;PABP polyA inh retest=-4
CC1CCCC(C)N1C(=O)COc1ccc(C(=O)N/N=C/c2ccc(C(=O)O)cc2)cc1 (centres undefined)	0	x	-2	1	-7	-6	1	-3
COC(=O)c1cn(C(=O)c2cccs2)c2ccccc12	-10	x	x	-4	-15	-10	x	x
CCOc1ccc2c(c1)C(N(CCN1CCOCC1)C(=O)Nc1ccc(OC)cc1OC)CC(C)(C)O2 (centres undefined)	-3	i	2	6	-9	x	-2	-1
NS(=O)(=O)c1cc(C(=O)OC2CCOC2=O)ccc1Cl (centres undefined)	8	i	7	0	-22	-10	3	4
Cn1c(CBr)c(C(=O)c2ccc([N+](=O)[O-])cc2)c(=O)n(C)c1=O	-4	i	1	4	-20	6	-2	0
CCOC(=O)Cc1c(Sc2ccccc2)c2ccccc2n1C	-4	i	x	5	13	x	-4	-5
COC(=O)c1ccc(/C=C/c2ccc3cccc(OC(C)=O)c3n2)cc1	1	i	-79	19	28	x	11	6
CC(CCc1ccccc1)NC(=O)COC(=O)C1=COCCO1 (centres undefined)	2	i	x	0	-19	x	2	1
CN(CC1COc2ccccc2O1)C(=S)Nc1ccccc1 (centres undefined)	x	i	-27	x	4	-27	0	-5
Cc1ccc(NC(=O)COn2nnc3ccc(S(=O)(=O)N(C)C)cc32)cc1F	-1	i	x	4	-12	5	2	-3
CN(C(=O)CN1C(=O)C2C3CC(C(Br)C3Br)C2C1=O)C1CCCCC1 (centres undefined)	-5	i	8	-7	-3	-26	-1	-3
CCN(CC(=O)Nc1cc(Cl)cc(Cl)c1)CC(=O)NC1CCS(=O)(=O)C1 (centres undefined)	x	x	1	x	-12	4	-1	0
CCCNC(=O)c1cc(C2CCCN(S(=O)(=O)c3cccc4cccnc34)C2)on1 (centres undefined)	x	x	11	x	x	-8	-2	-6
O=C(Cn1nnc(-c2ccccc2)n1)OCc1csc(-c2ccccc2)n1	-5	i	x	-4	-27	3	-4	-11
CCOC(=O)c1c(C)nc2c(c1C)c(=O)oc1ccccc12	-14	i	x	-4	-9	-10	-8	-4
CC(=O)c1ccc(NC(=O)C2CCN(S(=O)(=O)c3cccs3)CC2)cc1	-3	x	5	-3	0	17	-3	-1
CC(Sc1ncnc2sc(-c3ccccc3)cc12)C(N)=O (centres undefined)	-4	i	-22	1	11	2	0	0
CCCNC(=S)N1CCC(c2nc3cc(C)c(C)cc3[nH]2)CC1	0	i	x	38	0	-26	2	1
COc1ccc(/C=C(\NC(=O)c2cccs2)C(=O)N2CCOCC2)cc1OC	0	i	12	0	-3	x	-2	3
CCN(C1CCS(=O)(=O)C1)S(=O)(=O)c1cc(C)ccc1C (centres undefined)	x	i	-2	x	-7	-23	1	2
Cc1nn2c3c(cnc2c1-c1ccccc1)C(=O)CCC3	-6	i	-33	-2	5	-20	8	6
O=S(=O)(c1ccc2ccccc2c1)N1CCN(Cc2ccccn2)CC1	1	i	3	1	-11	x	3	3
COc1ccc(NC(=O)C2CCCC2)cc1S(=O)(=O)N1CCOCC1	x	x	-2	x	8	13	-1	4
CC1CCCC(C)N1CC(O)COCc1ccccc1F (centres undefined)	-2	i	3	-5	-9	-22	-1	1
Cc1cc(-c2ccccc2)n[nH]1	3	i	-6	1	3	x	-2	2
